Compound activity as filed in PubChem BioAssay.
Ecoli growth = E. coli growth inhibition, primary screen, OD600; Escherichia coli growth, 23 h; active compounds read low; OD600 absorbance (no concentration beside the values); hit rate 0.21% among 330,000; AID 1053175, 2014;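 active = OD600 absorbance below the run mean of sample wells minus 3.6 SD, in any replicate, cut at about 0.56 in these data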;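 also: stock transfer was 300 nL into about 60 µL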
LANA-H2A inh = blockers of LANA interaction with H2A/H2B – biochemical, FP readout, HTS, primary screen | Protein LANA1 (Human herpesvirus 8 type P (isolate GK18)), Q9QR71 | cell-free LANA-H2A/H2B peptide, fluorescence polarization | inhibition, % (concentration not given with the values) | hit rate 0.6% among 320,000 | AID 2629, 2010; in the data active = inhibition mostly above about 10%, no sharp cut-off; inactive = mostly below about 6.7%;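 also: stock transfer was 7.5 nL into about 10 µL; 0% = median of vehicle wells and 100% = median of positive control wells; one replicate is shown; the record names a cut of 25% in any replicate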
UCH37 inh = inhibitors of human UCH37 deubiquitinase, primary screen, biochemical, Ub-AMC cleavage, fluorescence; Ubiquitin carboxyl-terminal hydrolase isozyme L5 (Homo sapiens), Q9Y5K5; purified proteasome/UCH37; inhibition, % (no concentration beside the values); hit rate 0.33% among 330,000;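 active = mean of two replicates above 20%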;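 also: 0% = compound-free wells with enzyme and 100% = wells lacking proteasome; stock transfer was 100 nL into about 20 µL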
Target sequence (Q9Y5K5 whole entry, looked up): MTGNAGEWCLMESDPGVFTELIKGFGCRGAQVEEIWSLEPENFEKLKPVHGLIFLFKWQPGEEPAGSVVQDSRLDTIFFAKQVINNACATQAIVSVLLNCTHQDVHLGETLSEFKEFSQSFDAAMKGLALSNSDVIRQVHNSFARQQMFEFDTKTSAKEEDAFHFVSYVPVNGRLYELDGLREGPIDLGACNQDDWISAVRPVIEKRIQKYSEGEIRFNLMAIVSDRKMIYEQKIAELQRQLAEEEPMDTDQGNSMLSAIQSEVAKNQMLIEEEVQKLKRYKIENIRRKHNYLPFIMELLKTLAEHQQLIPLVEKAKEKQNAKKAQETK
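Assay system: Proteasome-bound UCH37. Buffer or medium: pH 7.4 Tris-HCl (50 mM) with ovalbumin, ATP-MgCl2, DTT. Incubation: 30 min preincubation with enzyme, 25 min cleavage at room temperature. Measured by: fluorescence, ex 355 nm, em 460 nm. Read-out basis: percent inhibition. Control set: wells without proteasome as full block, compound-free enzyme plus substrate as uninhibited.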
Vif TR-FRET = inhibitors of Vif binding to APOBEC3G peptide, primary screen, biochemical, TR-FRET, GST-Vif 1-94, biotin-A3G peptide, dose response retest (AID 1117319); inhibition, %; hits with a dose series show IC50 in µM; TR-FRET GST-Vif / biotin-A3G peptide binding; higher % means a stronger effect; test concentration not given here; strong numbers were not always called active; Virion infectivity factor (Human immunodeficiency virus type 1 group M subtype B (isolate …; hit rate 0.57% among 260,000;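 active = above the screen mean plus three standard deviations and confirmed in dose response; inconclusive = results disagree or hit not tested in dose response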;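 also: Vif residues 1-94 fused to GST binding biotinylated APOBEC3G peptide 110-148; 0% = full assay without inhibitor and 100% = GST in place of GST-Vif; retest series ran down from 100 µM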
HNF4A DNA FP = change in binding of human HNF4A to DNA, primary screen, biochemical, fluorescence polarization, FITC-DNA; Hepatocyte nuclear factor 4-alpha (Homo sapiens), P41235; hit rate 0.3% among 360,000; AID 1224865, 2016; 1 h; activity change, % at 10 µM; in the data active = activity change above about 30%, passing the limit was not always enough;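 also: controls were the assay level and a saturating level of protein; the project sought stronger binding though the title names inhibitors; some compounds called inactive have numbers as strong as hits; positive values seem to mean higher polarization but the record does not say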
Target sequence (P41235 whole entry, looked up): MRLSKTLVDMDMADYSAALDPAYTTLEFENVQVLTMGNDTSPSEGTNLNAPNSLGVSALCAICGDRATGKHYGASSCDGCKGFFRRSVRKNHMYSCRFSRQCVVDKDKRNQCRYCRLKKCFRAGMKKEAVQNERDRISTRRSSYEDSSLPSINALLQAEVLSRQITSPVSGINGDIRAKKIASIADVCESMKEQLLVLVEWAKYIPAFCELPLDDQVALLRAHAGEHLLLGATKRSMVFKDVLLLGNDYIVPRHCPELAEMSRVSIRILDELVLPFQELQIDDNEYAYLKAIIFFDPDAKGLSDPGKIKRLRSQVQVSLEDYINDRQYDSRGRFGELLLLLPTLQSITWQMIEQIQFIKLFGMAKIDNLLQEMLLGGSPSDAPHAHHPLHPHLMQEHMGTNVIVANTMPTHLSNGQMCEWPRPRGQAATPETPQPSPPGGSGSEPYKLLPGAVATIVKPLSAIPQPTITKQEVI
A1 inh = caspase 3/7 activation in MEF A1-2A-BIM cells, primary screen, A1 inhibitor project, cell-based, luminescence, HTS; Caspase-Glo 3/7 luminescence, 3 h; percent of clofoctol response, vehicle zero; caspase activation, % (test concentration not listed); hit rate 0.066% among 330,000;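 active = over half of replicate activation scores above 10%, or exactly half above 10 with the replicate mean above 10; inconclusive = replicate mean below 10 yet half the replicates above 10; inactive = over half of replicates below 10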;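 also: wells of about 30 µL received 50 nL stock; many hits fall short of the cut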
B2AR ag = beta2AR agonists driving receptor internalization, primary screen, cell-based, FAP fluorogen, flow cytometry | Beta-2 adrenergic receptor (Homo sapiens), P07550 | Am2.2-beta2AR cells; reference of the scale not given here | response, % (concentration not given with the values) | hit rate 0.43% among 340,000 | AID 504454, 2011;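 active = response above a set limit, near 3 SD of response in nonfluorescent compounds, cut at about 42% in these data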;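 also: stock transfer was 100 nL into about 11 µL; a reference agonist was the positive control; negative values mostly stem from fluorescent compounds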
* hit, by the source's call; ? = inconclusive; · = no result given.

SMILES	Ecoli growth	LANA-H2A inh	UCH37 inh	Vif TR-FRET	HNF4A DNA FP	A1 inh	B2AR ag
O=C(Cn1c(=O)cnc2ccccc21)NNC(=O)c1ccc(Cl)cc1	0.72	4.4	1.1	5%	-3.7	0.4	-8
CN=C1C=C/C(=N/N=c2\ccn(O)cc2C)C=C1C	0.66	-2.4	24*	1%	6.2	0.4	-6
O=C(OCC(=O)N1CCCCCC1)c1ccc(Br)c(S(=O)(=O)N2CCOCC2)c1	0.73	-8.3	3.6	-4%	0.6	0.5	-2
COc1ccc(OCC(=O)N2CCc3ccccc3C2)cc1	0.65	-3.9	1.9	·	-3.1	-0.2	6
COCC(C)NC(=O)c1cc(-c2ccc(O)cc2)on1 (stereo unspecified)	0.67	0.6	1.0	-1%	1.0	-1.8	7
Cc1ccc(CN2CCN(c3ccccc3)CC2)o1	0.68	-1.9	1.6	·	-1.6	0.5	-1
CCC(C)Sc1ccc([C@@H]2[C@H]3C(=O)N(CC)C(=O)[C@H]3[C@]3(C(=O)OC)CCCN23)cc1OC (stereo partly specified)	·	-2.7	0.2	·	1.1	-0.2	-4
COCCCn1c(SCC(=O)NC(C)(C)C)nnc1-c1ccccc1	0.63	6.5	3.3	3%	-3.5	-0.6	1
CN1CCN(c2ccc(Cl)cc2NC(=O)/C=C/c2ccc(F)cc2)CC1	0.64	-3.1	2.3	-2%	3.2	-0.7	20
Cn1c(=O)c2[nH]c(N=NNc3ccccc3F)nc2n(C)c1=O	0.69	0.7	10	-1%	0.4	-0.2	-6
CN(CC(=O)Nc1ccc(N2CCOCC2)cc1)C(=O)CC(c1ccccc1)c1ccccc1	0.7	0.8	1.2	16%	4.5	0.0	7
CCC1CCc2c(c3ccccc3[nH]c2=O)O1 (stereo unspecified)	0.76	1.2	-4.1	-1%	1.4	0.2	-2
Cc1c(OCC(=O)NCc2ccncc2)ccc2c3c(c(=O)oc12)CCCC3	0.68	2.1	-18	·	4.6	-1.0	-6
Cc1cc(C)cc(CSCC(=O)NN=C2CCCCCC2)c1	0.66	0.3	1.6	-1%	0.2	-1.2	1
C=CCn1c(=O)c2c3c(sc2n2c(Nc4ccc(C(=O)OCC)cc4)nnc12)CCCC3	0.72	4.3	1.9	0%	0.5	·	18
CCOC(=O)COn1c(SCC(=O)OCC)nc2ccccc2c1=O	0.64	1.5	1.0	8%	1.0	0.6	4
CCOC(=O)C1C(=O)OC(C)(C)C1C(C)C(=O)c1ccccc1 (stereo unspecified)	0.69	-0.4	-1.0	-1%	1.6	0.2	9
Cc1nnc(NC(=O)c2ccc3c(c2)C(=O)N(CCC(C)C)C3=O)s1	0.68	-0.2	2.5	5%	3.6	1.3	-1
O=C(NCCNc1ccc([N+](=O)[O-])cc1)c1cc(F)c(F)cc1Cl	0.63	4.3	9.5	·	2.8	0.3	-3
O=C(CNC(=O)c1ccc(-c2ccccc2)cc1)OCc1c(F)cccc1Cl	0.66	2.2	2.6	?	1.8	-0.4	-4
CCCCn1c(N)c(N(CCOC)C(=O)c2ccc(-c3ccccc3)cc2)c(=O)[nH]c1=O	0.66	-2.4	0.4	-10%	0.3	0.2	-19
O=C(O)c1cccc(S(=O)(=O)N2CCCC(c3nc4c(nnn4Cc4ccccc4Cl)c(=O)[nH]3)C2)c1 (stereo unspecified)	0.61	-5.5	-0.6	4%	-1.9	0.3	-5
O=C(Cc1cccs1)N(c1ccc(Cl)cc1)C1C=CS(=O)(=O)C1 (stereo unspecified)	0.73	-0.6	0.8	7%	-2.2	0.8	8
CCCNC(=O)c1ccccc1NC(=O)COc1ccc(OC)cc1	0.7	-2.3	-0.9	-9%	0.5	-0.7	9
CC(C)C(=O)Nc1nnc(SCC(=O)Nc2ccc3c(c2)OCCO3)s1	0.67	6.9	4.1	-9%	-5.0	2.0	-6
CCOC(=O)c1cnc(SCC(=O)OCC(=O)NC2CCS(=O)(=O)C2)nc1N (stereo unspecified)	0.63	-1.0	1.4	3%	1.3	0.7	-1
CCOc1ccc(CNS(=O)(=O)c2c(C)nc3scc(C)n3c2=O)cc1OC	0.71	0.8	6.6	·	1.2	-0.4	-2
CC1(c2nnc(Cc3ccccc3)o2)CC(c2ccc(OC(F)(F)F)cc2)=NO1 (stereo unspecified)	0.68	0.5	-0.2	·	-3.3	-0.2	-6
Cn1cnnc1SCC(=O)Nc1ccc2c(c1)CCC2	0.66	-0.2	-4.0	4%	9.2	0.4	16
COc1ccc(C2/C(=C(/O)c3ccccc3)C(=O)C(=O)N2c2ccccn2)cc1 (stereo unspecified)	0.73	-2.2	11	·	3.5	-0.5	3

Just Ecoli growth (3 entries from above):
| mol | Ecoli growth |
| --- | --- |
| CCCCn1c(N)c(N(CCOC)C(=O)c2ccc(-c3ccccc3)cc2)c(=O)[nH]c1=O | 0.66 |
| CCOC(=O)COn1c(SCC(=O)OCC)nc2ccccc2c1=O | 0.64 |
| CCCNC(=O)c1ccccc1NC(=O)COc1ccc(OC)cc1 | 0.7 |

Later entries:
SMILES	Ecoli growth	LANA-H2A inh	UCH37 inh	Vif TR-FRET	HNF4A DNA FP	A1 inh	B2AR ag
COc1cc(/C=C2/C(=O)NN(c3ccc(F)cc3)C2=O)cc([N+](=O)[O-])c1O	0.67	4.4	13	20%	-0.7	1.5	11
CCC1(c2ccccc2)NC(=S)N(c2cccc(C)c2C)N1 (stereo unspecified)	0.64	5.4	3.0	1%	0.3	0.8	0
COc1ccc(OC)c(NC(=O)C2CCCN(S(=O)(=O)c3c(C)nn(C)c3C)C2)c1 (stereo unspecified)	0.71	-0.9	2.5	-9%	2.4	0.0	3
CC1(C)OC(=O)N(NCc2ccccc2)C1(C)O (stereo unspecified)	0.63	-4.6	3.6	6%	-1.9	1.2	7
CCc1ccc(NCCC(=O)c2ccc(Br)cc2)cc1	0.66	2.4	-1.2	7%	1.1	0.5	-2
CCSc1nnc(NC(=O)C(C(F)(F)F)C(F)(F)F)s1	0.68	-2.7	5.2	10%	2.8	-1.3	0
CCN(CC)S(=O)(=O)c1cc(C(=O)O)ccc1OC	0.71	-2.3	2.9	·	-1.3	0.1	-6
C=CCNC(=S)Nc1ccc(Cl)cc1	0.67	-1.3	0.1	6%	1.0	0.7	-3
CN1CCN(C2=Cc3cc(Cl)ccc3Sc3cc(F)ccc32)CC1	0.36*	-0.1	4.2	2%	-0.1	0.8	·
Cc1cccc(-n2nnc(C(=O)NCc3ccccn3)c2N)c1	0.65	0.9	0.0	18%	-2.5	-0.5	-9
Cc1c(N2CCCC2)cc2c(c1NC(=O)c1ccccc1Cl)C(C)(C)CC2(C)C	0.7	3.4	3.2	·	6.3	0.8	7
COc1cccc(CN=c2c([N+](=O)[O-])nn(-c3ccccc3C)n2O)c1	0.67	-0.2	7.9	-4%	1.7	1.7	2
CC(=O)Nc1ccc(S(=O)(=O)Nc2cccc(S(=O)(=O)N(C)c3ccccc3)c2)cc1	0.65	·	0.3	5%	1.9	·	-1
CCCCCOC(=O)c1ccc(NC(=O)c2cccc(NC(=O)c3ccccc3C(=O)O)c2)cc1	0.66	0.6	-2.0	·	0.4	0.4	7
Oc1c(Br)cc(/C=N/Nc2ccc(Cl)nn2)cc1Br	·	19	·	12%	1.0	-0.3	5
O=S(=O)(NCCc1csc(-c2ccccc2)n1)c1ccc2c(c1)OCCO2	0.7	6.1	5.4	-2%	-2.6	-0.6	1
CC1(C(=O)CSc2ncn[nH]2)CCC(=O)O1 (stereo unspecified)	·	-4.5	·	15%	·	0.9	·
CCOC(=O)c1c(NC(=O)C[n+]2ccccc2)sc2c1CCCC2	0.72	-0.8	5.1	-6%	-2.0	-0.1	-1
CCN(CC)S(=O)(=O)c1cc(OCC(N)=O)c(C)cc1Cl	0.7	3.4	1.9	12%	-2.8	-0.5	1
Cc1ccc(-n2ncc(C(=O)NCC3CCN(C4CCCC4)C3)c2C2CCN(C(=O)OC(C)(C)C)CC2)cc1 (stereo unspecified)	0.6	-0.5	0.2	-4%	-0.7	1.8	8
Cc1ccc(C(=O)Nc2ccccc2[N+](=O)[O-])cc1S(=O)(=O)N1CCOCC1	·	10	·	·	5.2	0.1	7
COC(=O)c1cc(C#N)c(NCc2ccc(Cl)cc2Cl)nc1C	0.83	-0.1	-13	-3%	0.3	0.5	3
Cc1ccc(NC(=O)CNC(=O)c2ccc(C)s2)nc1	0.68	0.3	1.1	-6%	2.7	1.5	-3
O=C(O)c1cccc(S(=O)(=O)N2CCN(Cc3ccc4c(c3)OCO4)CC2)c1	0.73	1.7	0.1	0%	-1.3	0.6	2
COc1ccccc1CNC(=O)COC(=O)c1ccccn1	0.7	2.0	5.6	-5%	-1.4	1.6	1
N#CCc1nn2c3c(cnc2c1C#N)C(=O)CCC3	0.7	-2.3	0.6	-5%	-1.4	0.8	11
O=C1/C(=C\c2ccc(Br)cc2)SC(=S)N1NS(=O)(=O)c1ccccc1	0.68	8.1	4.3	·	-0.3	-0.1	8
Cn1c2ccccc2c(=O)c2c(=O)n(-c3ccc(F)cc3)c(-c3cccs3)nc21	0.65	-0.4	-4.8	·	-1.2	-0.7	-4
O=C(O)CS(=O)(=O)CC(=O)O	·	-1.9	4.5	10%	-2.0	0.2	-4
Cc1ccccc1-n1c(C)nnc1SCC(=O)NNC(=O)c1ccccc1	0.71	-14	2.1	·	-2.2	0.0	5
Clc1cccc(/C=N/N2CCN(Cc3ccccc3)CC2)c1	·	0.1	·	·	-1.1	1.2	7
CCCCNC(=O)N1CCN(C(=O)C2CCCO2)CC1 (stereo unspecified)	0.7	1.5	-1.7	-2%	-0.5	1.0	9
O=C(COC(=O)CNC(=O)c1ccccc1)Nc1ccc(S(=O)(=O)N2CCOCC2)cc1	0.73	1.5	2.8	13%	-3.5	-0.1	-4
CCOC(=O)c1c(NC(=O)/C=C/C(=O)O)sc(C)c1-c1ccc(Cl)cc1	0.7	-5.5	11	-6%	-2.5	1.2	6
CC1(C)C(=O)Nc2ccccc2N1C(=O)COC(=O)C12CC3CC(CC(O)(C3)C1)C2	0.76	3.0	0.1	32%	2.3	-0.1	5
Cc1nn(Cc2ccccc2)c(C)c1C(=O)NCCN1C(=O)S/C(=C\c2ccccc2)C1=O	0.7	-0.3	1.7	12%	-3.0	0.2	-6
CCN(CC(=O)NCc1ccc(F)cc1)C(=O)COc1ccccc1[N+](=O)[O-]	0.68	-3.5	-2.0	·	5.1	1.5	5
CCOc1ccc(/C=N/NC(=O)C(=O)NCc2ccco2)cc1	·	-0.3	·	2%	2.6	1.5	-2
CN1CCN(c2nc3c(c(=O)n(C)c(=O)n3C)n2Cc2ccc(Cl)cc2)CC1	0.68	2.8	5.5	·	2.6	-0.7	-14
CCN(C(=O)COC(=O)/C=C/c1ccco1)C1CCCCC1	0.67	-7.1	4.8	·	-6.6	0.8	-2
Nc1c(C(=O)O)sc2nc(-c3ccccc3)cc(-c3ccc(F)cc3)c12	0.67	-0.2	-0.8	-36%	35*	-0.2	9
COc1ccc(/C=N/NC(=O)CN2CCSCC2)c(OC)c1	·	0.9	·	7%	0.5	0.1	-2
